Six1-Eya2 inh – Six1/Eya2 interaction inhibition. AlphaScreen GST-Six1/His-Eya2 binding, biochemical; active compounds read low; control for the full effect not named in the record. activity change, % (no concentration beside the values). actives 0.56% (n = 360,000); in the data active = activity change below about -65%; inconclusive = about -30% to -65%; inactive = above about -30%; note: % is set by controls: 0 for no effect and ±100 for the full control effect
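GST-Six1 + His-Eya2 (5X stock: 250/500 nM); Tris pH 8.0, 300 mM NaCl, 0.05% BSA, 0.02% Tween 20; GSH donor/Ni acceptor beads; 1 h 37 °C dark; AlphaScreen readout.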
D2 ag – activates the human D2 dopamine receptor. P14416. DiscoveRx PathHunter D2 beta-arrestin, luminescence, 90 min; 100% = 57 uM dopamine signal. activation, % (test concentration not listed). actives 0.084% (n = 360,000). AID 624465; in the data active = activation above about 40%; inconclusive = about 15% to 40%; inactive = below about 15%; note: compound concentration not given in the record; the text of the record calls up to 30% inactive
Target sequence (P14416 whole entry, looked up): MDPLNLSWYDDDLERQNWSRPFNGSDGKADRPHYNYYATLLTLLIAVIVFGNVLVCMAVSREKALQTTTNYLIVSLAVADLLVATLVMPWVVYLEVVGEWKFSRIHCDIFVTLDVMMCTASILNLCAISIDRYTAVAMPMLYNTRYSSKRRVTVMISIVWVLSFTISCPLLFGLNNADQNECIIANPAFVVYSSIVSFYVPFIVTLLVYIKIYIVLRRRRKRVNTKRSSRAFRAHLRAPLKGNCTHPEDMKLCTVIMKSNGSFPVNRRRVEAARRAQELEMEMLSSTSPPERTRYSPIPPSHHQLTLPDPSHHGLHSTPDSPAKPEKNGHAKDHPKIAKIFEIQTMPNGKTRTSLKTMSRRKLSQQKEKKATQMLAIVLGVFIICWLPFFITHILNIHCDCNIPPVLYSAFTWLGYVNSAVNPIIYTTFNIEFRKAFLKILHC
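DiscoveRx PathHunter D2 beta-arrestin cells (2,100/well) attached overnight, then compound-stimulated 90 min at 37 C in HBSS/10 mM HEPES/0.1% Tween-20 buffer; beta-galactosidase complementation read by luminescence after 1 h at ambient temperature. Dopamine 57 uM final (EC100) as control.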
gsp antag – antagonists of gsp mutant (McCune-Albright syndrome); Potency, µM (titrated, usually from 76.9 µM), for inactives: at the top dose activity change, negative = inhibition, usual class: inhibitors; actives 0.4% (n = 340,000); AID 624288; gsp-mutant cells, cAMP HTRF, 30 min; control for the full effect not named in the record; active = falling curve of any shape with a large fitted effect; inconclusive = falling curve, mostly with a smaller effect; inactive = flat or rising curve; cell line not stated here;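 note: intracellular cAMP measured with PDE inhibitor Ro 20-1724 present during compound exposure; potency is the fitted concentration of half-maximal effect; % is set by controls: 0 for no effect and ±100 for the full control effect; nearly all actives have a fitted effect of over 65% in size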
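Cells, 2000/well, grown 16–24 h in DMEM 10% FBS with 0.5 mg/ml G418, then compounds plus […] (300 uM addition stock), 30 min at 37C. cAMP read by HTRF (cAMP-d2 and anti-cAMP antibody-K in lysis buffer) after 30 min RT.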
gsp agonist – agonists of gsp mutant (McCune-Albright syndrome); gsp mutant cells, cAMP HTRF, 30 min; control for the full effect not named in the record; actives 0.13% (n = 340,000); Potency, µM (doses to about 76.9 µM), for the others: top-dose activation (cAMP increase), hits mostly activators; active = well fitted activation curve with a large enough effect; inconclusive = small, poorly fitted or top-dose-only effect, or another doubt; inactive = no such curve, though single readings can be large or run the other way; cell line not stated here;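 note: phosphodiesterase inhibitor Ro 20-1724 added with compounds to block cAMP breakdown; potency is the fitted concentration of half-maximal effect; nearly all actives have a fitted effect of over 60% in size; about a fifth of the inactives were tested at one dose only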
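Cells stably selected in G418 were plated at 2000/well, grown 16-24 hr, then given compounds in DMSO with the PDE inhibitor […] (300 uM solution added) for 30 min at 37C; cAMP was read by HTRF.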
CtBP-E1A inh – inhibitors of CtBP/E1A interaction; AlphaScreen GST-E1A/His-CtBP binding, 1536-well; active compounds read low; control for the full effect not named in the record; activity change, % (test concentration not listed); actives 0.49% (n = 340,000); AID 651724; in the data active means activity change below about -65%; inconclusive means about -30% to -65%; inactive means above about -30%; note: % is set by controls: 0 for no effect and ±100 for the full control effect
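In 5 uL wells, 23 nL compound meets equimolar GST-E1A and His-CtBP (5X stock 125 nM each) for 2 h, 37 °C. Beads (5X, 50 ug/mL) then 1 h, 37 °C, dark.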
D2 PAM – potentiates the human D2 dopamine receptor allosterically; AID 624464; actives 0.23% (n = 360,000); DiscoveRx D2 beta-arrestin cells, luminescence, 90 min; 100% = 57 uM dopamine signal; potentiation, % (test concentration not listed); active = potentiation of 50% or more; inconclusive = 30% to 50%; inactive = 30% or less;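 note: compound concentration not given in the record; tested on top of an EC20 dose of dopamine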
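PathHunter beta-arrestin assay in DiscoveRx D2 cells. Compounds were added with an EC20 of dopamine (50 nM final) for 90 min at 37 deg C. Luminescence was read 1 h after detection reagent, with 57 uM dopamine as the EC100 control.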
* = called active by the depositor; ? = inconclusive; / = no result given; [ ] = another dose, or the depositor's remark.

[1] Cc1c(NC(=O)C(C)OC(=O)CC2CC3CCC2C3)c(=O)n(-c2ccccc2)n1C (configuration not stated)
[2] COc1ccc(NC(=O)C2CCCN(S(=O)(=O)c3c(C)[nH]c(=O)[nH]c3=O)C2)cc1 (configuration not stated)
[3] CN1CCCC1=Nc1ccccc1
[4] CC(O)(c1cccnc1)c1nc(-c2ccoc2)cs1 (configuration not stated)
[5] Cc1oc2cc3oc(=O)cc(C)c3cc2c1C
[6] O=C(COc1coc(CN2CCc3ccccc3C2)cc1=O)Nc1ccc([N+](=O)[O-])cc1
[7] O=C(N/N=C/c1c(O)ccc2ccccc12)c1cccc(C(F)(F)F)c1
[8] Cc1cc(C)cc(C(O)c2ncc(-c3cccc(C(F)(F)F)c3)[nH]2)c1 (configuration not stated)

assay / compound,1,2,3,4,5,6,7,8
Six1-Eya2 inh,6,-10,3,-3,2,-2,-28,-17
D2 ag,-1.2,0.3,-3.6,1.5,8.0,2.1,1.2,7.4
gsp antag,9%,0%,/,/,5%,-5%,?,/
gsp agonist,23%,-26%,?,/,-39%[inhibitor],26%,-5%[15.4 µM],/
CtBP-E1A inh,3,11,-1,4,/,-13,-14,-6
D2 PAM,-3,-4,-9,-3,0,5,-2,-8

[9] CN(CC(=O)Nc1ccc(Cl)c(C(F)(F)F)c1)C(=O)COC(=O)C1CC2CCCC(C1)C2=O (configuration not stated)
[10] CC(C)CCNC(=S)Nc1ccc(Br)cc1
[11] O=C(NCCCCNC(=O)c1cccnc1)c1cccnc1
[12] COc1ccc(C(=O)NC(C)C2CC3CCC2C3)c(OC)c1 (configuration not stated)
[13] CCCCN(C)C(=O)C1CCN(CCCc2ccccc2)CC1
[14] Cc1nn(C(C)C(=O)NCCN2CCCC2)c(=O)c2c1sc1ccccc12 (configuration not stated)
[15] CCNC(=O)NC(=O)C(C)OC(=O)C1CCN(S(=O)(=O)c2ccc(C)c(C)c2)CC1 (configuration not stated)
[16] COc1ccc(S(=O)(=O)N2CCSC2c2ccccc2)cc1 (configuration not stated)

assay / compound,9,10,11,12,13,14,15,16
Six1-Eya2 inh,4,2,-1,4,5,1,3,10
D2 ag,-1.9,-1.3,-3.0,-3.9,-1.0,-1.2,-2.9,-2.3
gsp antag,-7%,-8%,5%,-7%,7%,16%,0%,-14%
gsp agonist,1%,0%,0%,-28%,15%,3%,-36%[inhibitor],-72%[inhibitor]
CtBP-E1A inh,-5,3,1,3,-1,4,1,13
D2 PAM,-10,-23,-6,-4,-24,-19,-19,-3

[17] O=C(c1ccc(OC2CCN(Cc3ccccc3OC(F)F)CC2)cc1)N1CCCC1
[18] Cc1ccc(C(=O)NC2CC(C)(C)NC(C)(C)C2)cc1C
[19] C=CC[C@H](CC(=O)NCCO)C(=O)N[C@H](COC(=O)[C@H](CC=C)CC(=O)OC(C)(C)C)c1ccccc1
[20] Nc1c(C(=O)CSc2nccn2-c2ccc(Cl)cc2)c(=O)[nH]c(=O)n1C1CC1
[21] Cc1c(NS(=O)(=O)c2ccc3c(c2)Cc2ccccc2-3)c(=O)n(-c2ccccc2)n1C
[22] Cc1cccc(NC(=O)C2CCN(C(=O)c3ccccc3C)CC2)n1
[23] O=C(NCc1ccccc1)C1=C[C@@H](c2ccccc2)C[C@@H](OCc2ccc(CO)cc2)O1
[24] CC(=O)N(C(C)=O)c1c(N2CCCC2)c2ccccc2oc1=O

assay / compound,17,18,19,20,21,22,23,24
Six1-Eya2 inh,-6,10,-2,20,1,4,-1,-2
D2 ag,0.3,1.4,-5.2,-1.6,0.1,1.0,0.7,-3.5
gsp antag,-16%,12%,8%,4%,-19%,9%,19%,0%
gsp agonist,5%,-1%,8%,7%,-61%[inhibitor],-23%,/,14%[15.4 µM]
CtBP-E1A inh,-7,2,5,/,/,/,1,0
D2 PAM,-31,-23,0,-14,3,12,-31,0

[25] COc1ccc(OCC(=O)N2c3ccccc3CC2C)c([N+](=O)[O-])c1 (configuration not stated)
[26] COc1cc(NC(=S)NCCc2c[nH]c3ccccc23)c(OC)cc1Cl
[27] CC(C)(C)OC(=O)C[C@H]1C/C=C\C[C@@H](CC(=O)NCCO)C(=O)NCCOC1=O
[28] COc1cc(/C=N/NC(=O)Cc2nnc(N)s2)cc(OC)c1OC
[29] COc1ccc(-c2cc(C(=O)NNC3=NCCC3)c3c(C)nn(-c4ccccc4)c3n2)cc1
[30] S=C(NCCc1ccccn1)Nc1ccccc1Cl
[31] COc1ccc(NC(=O)Nc2c(C)n(C)n(-c3ccccc3)c2=O)cc1
[32] N/C(=N\N=C\c1cccc(O)c1)c1nonc1N

assay / compound,25,26,27,28,29,30,31,32
Six1-Eya2 inh,-8,?,3,-5,1,3,3,-8
D2 ag,-1.4,0.4,-0.6,-1.9,3.6,-3.0,-3.9,4.7
gsp antag,-19%,?,11%,11%,-11%,-8%,3%,/
gsp agonist,?,5%,/,-41%[inhibitor],-2%[15.4 µM],-5%,-19%,9%[15.4 µM]
CtBP-E1A inh,-1,-25,6,-1,6,/,0,-15
D2 PAM,-3,-14,-6,1,0,-13,-3,-7

[33] COc1ccc2[nH]cc(CCNC(=O)Nc3ccccc3)c2c1
[34] CCOC(=O)N1CCN(Cc2c(NC(=O)c3ccco3)sc(C)c2C)CC1
[35] CCN(CC)CC(=O)Nc1nn(-c2ccccc2)nc1C(N)=O
[36] Cc1ccc(Cn2nc(-c3ccccc3)nc2-c2ccccc2)cc1
[37] COC(=O)C[C@@H]1C[C@@H]2c3cc(NS(=O)(=O)c4ccc(F)cc4)ccc3O[C@@H]2[C@@H](CO)O1
[38] CN(NC(=O)c1ccccc1Cl)c1ncc(C(F)(F)F)cc1Cl
[39] CC1CCCN(CCCNC(=O)C2CCC(CNS(=O)(=O)c3cccc4nsnc34)CC2)C1 (configuration not stated)
[40] Cc1nn(C)c(C)c1CN(C)S(=O)(=O)c1ccc(F)cc1

assay / compound,33,34,35,36,37,38,39,40
Six1-Eya2 inh,0,-5,16,22,5,8,-12,9
D2 ag,-1.3,4.4,-4.2,-2.2,-1.6,0.1,-8.6,-1.2
gsp antag,-4%,-15%,-1%,-2%,/,11%,26%,-21%
gsp agonist,-2%,4%[15.4 µM],9%,-37%[inhibitor],-59%[inhibitor],7%[15.4 µM],?,-4%
CtBP-E1A inh,-17,0,0,32,2,5,-17,0
D2 PAM,-12,-4,-2,-6,1,2,-17,-11

Five compounds from above, ordered by SMILES length, highest first.
[37] COC(=O)C[C@@H]1C[C@@H]2c3cc(NS(=O)(=O)c4ccc(F)cc4)ccc3O[C@@H]2[C@@H](CO)O1
[38] CN(NC(=O)c1ccccc1Cl)c1ncc(C(F)(F)F)cc1Cl
[36] Cc1ccc(Cn2nc(-c3ccccc3)nc2-c2ccccc2)cc1
[35] CCN(CC)CC(=O)Nc1nn(-c2ccccc2)nc1C(N)=O
[33] COc1ccc2[nH]cc(CCNC(=O)Nc3ccccc3)c2c1

assay / compound,37,38,36,35,33
Six1-Eya2 inh,5,8,22,16,0
D2 ag,-1.6,0.1,-2.2,-4.2,-1.3
gsp antag,/,11%,-2%,-1%,-4%
gsp agonist,-59%[inhibitor],7%[15.4 µM],-37%[inhibitor],9%,-2%
CtBP-E1A inh,2,5,32,0,-17
D2 PAM,1,2,-6,-2,-12

Continued:
[41] CCCOc1ccc(C(=O)NC(=S)Nc2nc(C)c(C(=O)N(C)C)s2)cc1
[42] COCCSc1nc2c(c(=O)[nH]c(=O)n2C)n1CCC(C)C
[43] Cc1ccc(NC(=O)c2onc(C)c2Cl)cc1
[44] Cc1ccsc1C(=O)Nc1cc(Cl)ccc1-n1cncn1
[45] COc1ccc(C(C(=O)NC2CCCCC2)N(Cc2cccs2)C(=O)Cc2c[nH]c3ccccc23)cc1OC (configuration not stated)
[46] COc1ccc(S(=O)(=O)N2CCCCC2)cc1NC(=O)Cn1c(=O)cnc2ccccc21
[47] Cc1ccc(N2C(=O)N(CC(=O)NC(N)=O)C(=O)C2C)cc1 (configuration not stated)
[48] Cc1ccc(/C=N/NC(=O)CSc2nc3nc(C)cc(C)n3n2)cc1

assay / compound,41,42,43,44,45,46,47,48
Six1-Eya2 inh,-11,-1,3,-4,-3,-4,6,-10
D2 ag,-4.3,-6.1,-1.8,0.4,0.3,2.0,-2.0,-2.0
gsp antag,-21%,3%,1%,-5%,-14%,0%,/,6%
gsp agonist,-6%,1%,-46%[inhibitor],0%,10%,15%[15.4 µM],0%[15.4 µM],?
CtBP-E1A inh,-6,5,10,-1,-8,20,15,-5
D2 PAM,-6,-4,-6,-17,10,-13,0,-4

[49] COC(=O)c1sc(NC(=S)NC(=O)c2cc(OC)c(OC)c(OC)c2)nc1C
[50] CN(C)CCCNC(=O)C[C@H]1C[C@H](C(=O)N2CCCCC2)[C@@]2(CCc3ccccc3)c3[nH]c4cc(-c5ccco5)ccc4c3CCN2C1=O
[51] CCOc1ccc(N2C(=O)CC(N3CCN(C(=O)CN4CCCC4)CC3)C2=O)cc1 (configuration not stated)
[52] Cc1oc(-c2ccccc2Cl)nc1CN(Cc1ccccn1)C[C@@H]1CCC(=O)N1
[53] Cn1cccc1C1C(C#N)=C(N)OC2=C1C(=O)CC(C)(C)C2 (configuration not stated)
[54] Cc1ccc2nc(-c3ccc(F)cc3)c(Cc3cccc(Cl)c3)n2c1
[55] CCN(CC(=O)Nc1ccc2c(c1)OCCO2)CC(=O)Nc1ccc(C)c(S(=O)(=O)N(C)C)c1
[56] CC(NC(=O)NNC(N)=S)(C(F)(F)F)C(F)(F)F

assay / compound,49,50,51,52,53,54,55,56
Six1-Eya2 inh,4,-18,3,1,-4,-4,2,7
D2 ag,0.5,-0.1,-2.9,-2.4,-1.8,-5.7,-2.3,-4.3
gsp antag,-8%,6%,-4%,-5%,11%,/,-4%,4%
gsp agonist,?,/,-1%,-24%,-7%,/,4%[15.4 µM],1%[15.4 µM]
CtBP-E1A inh,/,-17,9,-4,-7,-6,1,-2
D2 PAM,-8,-2,-1,3,-9,-7,-14,-1

[57] CCC(CO)Oc1cc(NC(=O)c2cccc3ccccc23)c2ncn(C(C)C)c2c1 (configuration not stated)
[58] CCC(C)c1ccc(NC(=O)c2cccnc2)cc1 (configuration not stated)
[59] CC(C(=O)N1c2ccccc2CC1C)N1CCN(S(=O)(=O)c2ccccc2F)CC1 (configuration not stated)
[60] COc1ccc2[nH]c(=O)c(CN(C)C(=O)C3CCCCC3)cc2c1

assay / compound,57,58,59,60
Six1-Eya2 inh,-4,0,-14,17
D2 ag,6.7,-1.0,-3.3,-3.7
gsp antag,-7%,2%,-5%,2%
gsp agonist,/,5%,?,-20%
CtBP-E1A inh,0,3,-16,2
D2 PAM,3,-12,-4,-13

Bioassay records as filed in PubChem.
